YopH inh = YopH (Yersinia) phosphatase inhibition | inhibition, %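 (about 10 µM by stock and volumes)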 | AID 898 | 140,000 compounds, 0.16% hits | fluorescence Ex485/Em525;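 active means inhibition of 50% or more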;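 further: controls were vehicle for no effect and minimum signal wells for full effect; inactives centre near -20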
Mtb H37Rv = M. tuberculosis H37Rv growth inhibitors, H37Rv strain (AID 1626) | 220,000 compounds, 0.95% hits | M. tuberculosis H37Rv growth inhibition; higher % means a stronger effect | inhibition, % at 10 µM; hits with a dose series show IC50 in µM;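 active means confirmed in a dose series; inconclusive means inhibition above 80% but not taken into the dose series; inactive means below 80% or under 30% at every dose of the series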;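 further: bacteria incubated seven days before Alamar blue readout; 0% = bacteria only wells and 100% = bacteria with antibiotic wells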
Mtb betalactam = beta-lactam sensitization of Mtb H37Rv | inhibition, % at 25 µM | AID 434955 | 330,000 compounds, 0.27% hits | M. tuberculosis H37Rv growth with meropenem, percent inhibition; hits of this screen are not shown here;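 active means about 74% or more and at least 40 points above the plate without the antibiotic, then above 30% in a dose series; inconclusive means first-round hits that could not be retested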;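 further: growth measured after seven days incubation then overnight dye step; 0% = bacteria only wells and 100% = bacteria with antibiotic; twin plates without the antibiotic show which effects depend on it; some results filed as inactive read as strong as hits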
RecA intein inh = inhibitors of M. tuberculosis RecA intein splicing. 290,000 compounds, 0.75% hits. inhibition, %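 (about 9 µM by stock and volumes)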. cell-free RecA intein splicing, fluorescence. AID 2221; in the data active means inhibition above about 30%; inconclusive means no clear call, values can overlap the other calls;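 further: 0% = vehicle wells and 100% = reference inhibitor control wells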
Target sequence (P9WHJ3 whole entry, looked up): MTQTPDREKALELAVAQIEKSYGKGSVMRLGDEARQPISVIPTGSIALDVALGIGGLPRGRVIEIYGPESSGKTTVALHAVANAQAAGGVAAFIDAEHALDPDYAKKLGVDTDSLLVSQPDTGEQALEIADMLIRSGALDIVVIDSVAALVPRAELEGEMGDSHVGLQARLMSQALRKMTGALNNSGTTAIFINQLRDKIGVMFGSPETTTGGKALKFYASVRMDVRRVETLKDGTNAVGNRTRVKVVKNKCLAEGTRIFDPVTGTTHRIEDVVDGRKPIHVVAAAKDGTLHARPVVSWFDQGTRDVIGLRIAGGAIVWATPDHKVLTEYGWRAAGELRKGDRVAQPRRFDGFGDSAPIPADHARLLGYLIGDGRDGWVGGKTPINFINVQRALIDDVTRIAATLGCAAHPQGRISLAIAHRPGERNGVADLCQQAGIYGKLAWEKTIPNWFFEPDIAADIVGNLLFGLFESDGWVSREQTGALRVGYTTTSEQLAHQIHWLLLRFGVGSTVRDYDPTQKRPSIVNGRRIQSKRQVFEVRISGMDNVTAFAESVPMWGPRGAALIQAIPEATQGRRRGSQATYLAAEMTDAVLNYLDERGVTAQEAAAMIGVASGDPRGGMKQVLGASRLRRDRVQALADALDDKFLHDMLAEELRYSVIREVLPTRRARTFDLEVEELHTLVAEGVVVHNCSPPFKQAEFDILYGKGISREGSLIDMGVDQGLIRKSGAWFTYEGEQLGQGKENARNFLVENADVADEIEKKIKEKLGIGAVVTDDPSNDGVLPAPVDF
Arbovirus anti = arbovirus infection inhibition; arbovirus infection cell-based antiviral screen; inhibition, % at 10 µM; 200,000 compounds, 0.37% hits; AID 1251;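 active means inhibition from about 30%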;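 further: bluetongue infection of BSR cells; cell survival read as ATP light after 72 h; 0% = infected wells without compound and 100% = uninfected wells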
Arbovirus anti repeat = second read-out of Arbovirus anti, no call of its own (marks repeat the call); inhibition, %; measured here: 10K subset replicate screen; many hits read low in the repeat;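 first of two repeat runs on a subset; 0% = infected and 100% = uninfected wells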
Starred values were filed as active, the others as inactive; ? = inconclusive; nt = not tested or not shown. Only part of the results is shown; the hit share may differ from the screen's.

SMILES	YopH inh	Mtb H37Rv	Mtb betalactam	RecA intein inh	Arbovirus anti	others
O=C(CCN1C(=O)c2ccccc2S1(=O)=O)N1CCN(c2ccccc2F)CC1	nt	nt	2	1.8	nt
COc1ccc(C(=O)c2ccc(Br)cc2)cc1	-34	-1%	0	0.0	1
Nc1c(C(=O)Nc2ccc3c(c2)OCCO3)nnn1CCc1ccccc1	-27	1%	6	1.0	-19	Arbovirus anti repeat=-16
Cc1[nH]n(-c2ccccc2)c(=O)c1/C=N/NC(=O)c1ccoc1C	-27	?	nt	4.1	-26
C=CCn1c(O)c(C(CC)=NCCc2ccccc2)c(=O)[nH]c1=O	-17	6%	2	4.4	-3
CCn1c(C)c(C(C)=O)c(N2CCCC2)nc1=S	2	-25%	-2	-1.1	2
O=C(CSc1ccc(-c2ccc(Cl)cc2)nn1)Nc1ccc2c(c1)OCCO2	-22	11%	1	-3.7	-19
Nc1ccccc1N=Nc1ccccc1N	nt	nt	94	12	nt
Cc1cc(NC(=O)CN2CCN(c3ccccn3)CC2)ccc1Br	nt	nt	23	4.1	nt
CN1C(=O)/C(=C/c2cccc(Cl)c2)Sc2ccc(C(=O)N3CCCC3)cc21	nt	nt	99	-2.5	nt
COc1ccc(-n2c(SCC(=O)N3CCCC(C)C3)nnc2-c2cccnc2)cc1 (centres undefined)	-42	nt	1	-4.1	1
Cc1ccc(CNC(=O)CCc2nc(-c3cccs3)no2)cc1	-55	6%	4	0.6	-5

The closing 5 compounds of the section above are carried over, then new ones follow.
SMILES	YopH inh	Mtb H37Rv	Mtb betalactam	RecA intein inh	Arbovirus anti	others
Nc1ccccc1N=Nc1ccccc1N	nt	nt	94	12	nt
Cc1cc(NC(=O)CN2CCN(c3ccccn3)CC2)ccc1Br	nt	nt	23	4.1	nt
CN1C(=O)/C(=C/c2cccc(Cl)c2)Sc2ccc(C(=O)N3CCCC3)cc21	nt	nt	99	-2.5	nt
COc1ccc(-n2c(SCC(=O)N3CCCC(C)C3)nnc2-c2cccnc2)cc1 (centres undefined)	-42	nt	1	-4.1	1
Cc1ccc(CNC(=O)CCc2nc(-c3cccs3)no2)cc1	-55	6%	4	0.6	-5
COC(=O)C(C)N1C(=O)S/C(=C\c2cc(C)n(-c3ccccn3)c2C)C1=O (centres undefined)	-23	0%	19	0.1	3
CCOC(=O)c1c(-c2ccccc2)csc1NC(=S)NC	-12	19%	14	0.8	-1
O=C(CSc1nnc(Cn2c(=O)sc3ccccc32)n1-c1ccccc1)N1CCCC1	-31	-2%	3	nt	3	Arbovirus anti repeat=-4
O=C1C(C=Nc2ccc(F)cc2)=C(O)c2ccccc21	nt	2%	0	nt	-12
Cc1c(C(=O)NC(C)c2ccncc2)oc2ccccc12 (centres undefined)	-22	-9%	-8	4.6	-2
Cc1cc2oc(C(=O)Nc3ccc(S(=O)(=O)N4CCCC(C)C4)cc3)cc(=O)c2cc1Cl (centres undefined)	-41	9%	0	3.7	-3
COc1ccc(C2C3=C(CC(C)(C)CC3=O)OC(N)=C2[N+](=O)[O-])cc1 (centres undefined)	-19	-6%	-2	2.1	-2
COc1ccccc1NCC(=O)N/N=C/c1cccnc1	-39	-1%	nt	-1.5	1
O=C(Nc1nc(-c2ccc(Oc3ccccc3)cc2)cs1)C1=COCCO1	-24	6%	3	6.9	26
COc1ccc(NS(=O)(=O)c2ccc3c(c2)NC(=O)CC(=O)N3)cc1OC	nt	nt	8	-0.6	nt
O=C1CCCCCCCN1Cc1ccccc1	nt	nt	-1	-1.2	nt
O=C(CCN1C(=O)c2ccccc2C1=O)N1CCCCCC1	-4	-2%	-10	-2.3	16
CCOC(=O)C1=C(C)NC(C)=C(C(=O)OCC)C1C(=O)OCC(=O)NC1(C#N)CCCCC1	nt	nt	-2	-2.1	nt
Cc1ccc(NC(=O)c2cc(NC(=O)CCCC(=O)O)ccc2Cl)cc1Cl	-24	-2%	6	-4.1	7
COc1ccccc1OCC#CCNC1CCCCC1C (centres undefined)	nt	-4%	4	-4.7	0
COc1ccc(C(C)(C)C)cc1NC(=O)C1CCCO1 (centres undefined)	nt	nt	-4	2.1	nt
Cc1ccc(N=Nc2[nH]c3ccccc3c2O)cc1	-11	3%	-2	-2.8	0
COc1ccccc1-n1ccnc1SCC(=O)NCc1ccco1	nt	0%	-5	-0.3	19
CCn1nnnc1-c1ccc(OC)c(S(=O)(=O)Nc2ccc(OC)cc2)c1	8	-3%	6	-0.4	2
O=[N+]([O-])c1ccccc1/C=C/CN1CCCC(CO)C1 (centres undefined)	nt	nt	-5	-3.5	nt
N#Cc1ccccc1OCC(=O)OCC(=O)c1ccc2c(c1)NC(=O)CO2	-28	-8%	-16	2.6	-8
Cc1ccc(-c2c(C)n([O-])c3c([n+]2=O)CCC3)o1	-45	-7%	-11	-3.7	4
C=CCOC(=O)C1=C[C@H](C2CC2)[C@@H](CCCO)[C@H](OCC)O1	nt	-7%	4	0.2	0
Cc1n[nH]c(=O)c2c(NC(=O)CSc3ncccn3)oc(C)c12	nt	nt	-15	-2.1	nt
CC(Oc1ccc(Cl)cc1Cl)C(=O)Nc1ccc(O)cc1 (centres undefined)	nt	3%	5	5.9	-21
O=C(NCCCN1CCN(c2ccccc2F)CC1)C1CC(=O)N(C2CCCC2)C1 (centres undefined)	-23	-4%	-1	3.3	-2
Cc1ccc(NC(=O)CN(c2ccccc2)S(=O)(=O)N(C)C)cc1	-9	-2%	1	1.8	2
CC(c1ccco1)N(C(=O)CSc1ccc(Br)cc1)c1ccccn1 (centres undefined)	-24	-15%	-1	5.8	2
CCCn1c(=S)[nH]c2cc(C(=O)NCC3CCCO3)ccc2c1=O (centres undefined)	-32	3%	1	1.2	1	Arbovirus anti repeat=0
CCN1C(=O)[C@H]2[C@@H](c3ccc(-c4ccc(F)cc4)cc3)N[C@@](Cc3ccccc3)(C(=O)OC)[C@H]2C1=O	nt	nt	3	4.0	nt
COc1ccc(N2C(=O)CC(Cc3ccc(Br)cc3)C2=O)cc1 (centres undefined)	nt	nt	5	1.4	nt
COc1ccc(/C=N/NC(=O)CCn2c3ccccc3c3ccccc32)cc1O	-30	0%	-3	7.2	-1
CCN1C(=NCC(C)C)N[C@@H](c2cccc(F)c2)C(C(=O)OC)=C1C	nt	nt	-8	0.7	nt
CCN(CC)S(=O)(=O)c1ccc(Cl)c(NC(=O)COC(=O)/C=C/c2cc(OC)c(OC)c(OC)c2)c1	-12	-3%	1	-2.6	-5
CC1(C)CC(NC(=O)c2ccccc2C(=O)NC2CC(C)(C)NC(C)(C)C2)CC(C)(C)N1	nt	-5%	4	nt	2
Cn1nc(N)nc1N1CCN(c2ccc(F)cc2)CC1	nt	6%	-3	-2.1	2
NP(=O)(Oc1ccc(Cl)cc1)Oc1ccc(Cl)cc1	nt	2%	-13	3.9	6
CSc1ccc(C(=O)C(C)(C)N2CCOCC2)cc1	-21	1%	1	2.3	5
CC1Cc2nc(SCC(=O)N3CCOCC3)n(C)c(=O)c2S1 (centres undefined)	nt	nt	-5	-0.3	nt
CCCCN(CCCC)CCCN1CC(=O)N2[C@@H](Cc3c([nH]c4ccccc34)C2(C)C)C1=O	nt	nt	2	0.4	nt
O=C(O)c1ccc(NS(=O)(=O)c2cc(Cl)ccc2Cl)cc1O	-53	-22%	2	-1.7	0
Cc1ccccc1N1C(=O)C2C3C=CC(CC3)C2C1=O (centres undefined)	nt	nt	-2	2.3	nt
OCc1csc(=Nc2ccccc2)n1-c1ccccc1	-4	-23%	-12	-1.3	6
COc1ccc(NC(=O)c2cc(-c3cccs3)on2)cc1	nt	nt	6	-2.0	nt
Cc1[nH]c2ccccc2c1C(O)c1ccncc1 (centres undefined)	nt	-9%	-5	-1.9	-4
COc1ccccc1C(=O)NCCC(=O)NCCOc1ccccc1	nt	nt	-7	0.9	nt
Nc1c(NCCN2CCCCC2)c2ccccc2oc1=O	nt	-2%	-6	-8.0	6
COc1ccc(CCNc2ncnc3c2nnn3Cc2ccccc2)cc1OC	nt	nt	-1	-0.3	nt
CCC(C)NC(=O)[C@H]1N2C(=O)c3c(ccc(OC)c3OC)C2SC1(C)C (some centres undefined)	nt	nt	-2	0.9	nt
CN(CC(=O)NC(=O)NCc1ccccc1)Cc1ccc(Cl)cc1	-53	19%	28	2.2	24
COc1ccc(NC(=O)c2ccccc2OCc2c(C)noc2C)cc1OC	nt	nt	-6	0.7	nt
CCCn1c(SCC(=O)N2CCc3ccccc3C2)nc2c1c(=O)n(C)c(=O)n2C	23	0%	11	13	-6
COc1cc(C)ccc1OCCOc1c(Cl)cc(Cl)cc1Cl	-23	7%	0	3.3	7
COc1ccc(C(c2nnnn2C2CCCC2)N2CCC(C(N)=O)CC2)c(OC)c1 (centres undefined)	-17	-8%	nt	-15	1
O=C(NCCN1CCOCC1)c1cc2sccc2n1Cc1ccc(Cl)cc1	-25	-2%	7	5.2	9
COCc1cc(C)nc(SCC(=O)Nc2ccc3c(c2)OCCO3)c1C#N	nt	nt	-3	-1.2	nt
CCCSC1C(C)=C(C)C(=O)N1Cc1ccccc1 (centres undefined)	nt	nt	-2	2.2	nt
Cc1cccc(Cc2nnc(CCC(=O)NCc3cnc4ccccn34)o2)c1	nt	1%	0	1.2	-2
CC(=O)Nc1ccccc1C(=O)C(=O)Nc1cccc(F)c1	-33	0%	-8	1.6	nt
O=C(NCCSCc1ccccc1)c1ccc(C2SCC(=O)N2Cc2ccccc2)cc1 (centres undefined)	-16	-2%	3	-4.2	-15

Reprinted at random: two compounds from above.
SMILES	YopH inh	Mtb H37Rv	Mtb betalactam	RecA intein inh	Arbovirus anti	others
N#Cc1ccccc1OCC(=O)OCC(=O)c1ccc2c(c1)NC(=O)CO2	-28	-8%	-16	2.6	-8
O=C(O)c1ccc(NS(=O)(=O)c2cc(Cl)ccc2Cl)cc1O	-53	-22%	2	-1.7	0

(next part)
SMILES	YopH inh	Mtb H37Rv	Mtb betalactam	RecA intein inh	Arbovirus anti	others
O=C(C1c2ccccc2C(=O)N2CCc3ccccc3C12)N1CCC2(CC1)OCCO2 (centres undefined)	-36	-9%	-9	-3.1	10
Cc1c(C(=O)N2C[C@@H](C)O[C@@H](C)C2)oc2c(F)cccc12	nt	nt	-3	-2.0	nt
COc1ccc(CNC(=O)CCSc2nc(-c3ccc4c(c3)OCO4)cc(C(F)(F)F)n2)cc1	2	5%	24	7.3	-27
Cn1nnnc1SCC(=O)N1CCN(c2ccccc2)CC1	0	-4%	18	-2.7	10	Arbovirus anti repeat=6
Cc1cc(Br)c2c(c1)C1(OCCO1)C(=O)N2	nt	nt	4	1.3	nt
COc1cc(SC)ccc1C(=O)Nc1c(Cl)cncc1Cl	nt	59%	28	13	-11
O=C(CCC(=O)Nc1ccc(F)cc1)N/N=C/c1cc([N+](=O)[O-])ccc1O	nt	3%	11	nt	8
Cc1ccc(SCC(=O)Nc2cccc(C(=O)NC(C)(C)C)c2)cc1	-39	-4%	-6	1.4	-4
O=[N+]([O-])c1ccccc1S(=O)(=O)N1CCCCC1	-2	2%	2	-1.5	7
CCC1Sc2ccc(S(=O)(=O)CCC(=O)NC3CCCCCC3)cc2NC1=O (centres undefined)	nt	nt	9	0.9	nt
CCOC(=O)[C@H]1[C@H]2COc3cc(OC)ccc3[C@@H]2N2C(=O)N(c3ccc(Cl)cc3)C(=O)[C@@]12C	nt	nt	-6	2.8	nt
CCCC(=O)Nc1nnc(SCC(=O)NCc2ccc3c(c2)OCO3)s1	nt	-3%	4	-0.9	8
O=C1CCC([N+](=O)[O-])C(c2ccc(F)c(Br)c2)N1 (centres undefined)	nt	nt	0	-1.2	nt
CCc1nnc(NC(=O)c2ccc3c(c2)C(=O)N(C(C)(C)C)C3=O)s1	-3	-9%	4	0.6	6
Clc1ccc(Oc2cnns2)cc1Cl	-12	-6%	-1	2.0	1
Cc1cccc(N=C2NN=C(c3c[nH]c4ccccc34)CS2)c1	-22	3%	2	2.2	-26
O=c1[nH]c2ccccc2nc1C(F)(F)C(F)F	-51	1%	0	-5.1	7
NC(=O)C1CCN(C2CC(=O)N(c3cccc(F)c3)C2=O)CC1 (centres undefined)	13	0%	-7	0.8	4
Cc1cc(C)nc(/N=C(\N)Nc2cccc([N+](=O)[O-])c2)n1	-15	2%	5	-5.7	-15
COC(=O)c1ccc(NC(=O)CSc2nnc(-c3ccccc3)n2C)cc1	5	-2%	7	1.5	-7
O=C(Cn1c(NCCCO)nc2ccccc21)c1ccc(Cl)cc1Cl	nt	nt	1	0.1	nt
COc1ccc(Br)cc1CNC(=O)C1CCN(S(=O)(=O)N2CCCC2)CC1	-8	-5%	-1	0.3	-6
CCCCOCCCNC(=O)N[C@H](C(=O)OC)C(C)CC (some centres undefined)	nt	-5%	-3	-4.8	nt
